LANA-nucl inh = LANA-nucleosome interaction inhibition. AID 720717. FITC-LANA1-23 / chicken nucleosome fluorescence polarization; active compounds read low. z-score (no concentration beside the values). 51,000 tested, 0.3% active;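 active means both repeat wells score below -2 in polarization z-score versus plate sample wells, excluding overly bright wells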;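 further: 100 nL library stock added to about 30 µL; numbers are from one replicate; some results filed as inactive read as strong as hits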
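Assay system: purified chicken nucleosomes with FITC-labelled LANA N-terminal peptide (1-23) / Probe or stimulus: 50 nM FITC-LANA1-23 probe / Compound dosing: pin-transferred compound, 100 nL / Times: compound with peptide–nucleosome mix 10–45 min at room temperature / Technique: fluorescence polarization, 480 nm excitation, 535 nm parallel and perpendicular emission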
BasE inh = blocks the Acinetobacter baumannii siderophore enzyme BasE; purified BasE, fluorescence polarization binding displacement; inhibition, % (concentration not given with the values); 84,000 tested, 0.1% active; AID 485350;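 active means both replicates above 25% with normal brightness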;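 further: 0% = negative plate control signal and 100% = positive plate control signal; stock transfer was 100 nL into about 30 µL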
An asterisk follows results filed as active; / = not tested or not shown; & = joins results of further samples.

structure | LANA-nucl inh | BasE inh
CCn1c(SCC(=O)OCC(=O)N2c3ccccc3NC(=O)C2(C)C)nnc1-c1ccco1 | / | 4.2
CCSc1ccc2c(c1)N(CCCN1CCN(C)CC1)c1ccccc1S2 | -0.877 | -0.7
CCOC(=O)c1[nH]c2c(c1C)C(=O)CCC2 | / | -1.4
NC(=O)c1cc(-c2ccccc2)nc2ccccc12 | / | -2.1
O=C(CSc1nnc(NC2CC2)s1)c1ccc2c(c1)OCO2 | / | -1.9
O=C(COC(=O)CC1CCCC1)Nc1nnc(-c2ccccc2)o1 | / | -1.3
CC1=NN(c2ccc(S(N)(=O)=O)cc2)C(=O)C1 | -0.167 | 1.0
CN1CCN(NC(=S)N=P(c2ccccc2)(N2CCOCC2)C(C)(C)C)CC1 (stereo not given) | / | -1.5
O=C(Nc1cccnc1)c1cccnc1C(=O)O | -0.921 | 2.5
O=C(Cc1ccccc1)NCCCl | -0.917 | /
CS(=O)(=O)C1=NN2C(=N)/C(=C\c3ccc(-c4ccc(Cl)cc4)o3)C(=O)N=C2S1 | 1.06 | 13.6
COc1cccc(C(=O)OCc2ccccc2C(F)(F)F)c1O | / | 1.3
CN1C(=O)c2ccccc2C(C(=O)N2CCCCCC2)C1c1cccs1 (stereo not given) | -0.204 | 0.6
CCOC(=O)CS(=O)(=O)c1ccc(C(F)(F)F)cn1 | 0.255 | -0.1
COc1ccc(C)cc1NC(=O)Cc1cn(C)c2ccccc12 | -0.053 | 0.2
CCc1ccc(NC(=O)CSc2ccccn2)cc1 | -0.121 | -1.5
O=C(NC(NCc1ccco1)(C(F)(F)F)C(F)(F)F)c1cccnc1 | -0.012 | 2.3
CCn1c2ccccc2c2cc(NS(=O)(=O)c3ccccc3)ccc21 | / | -0.4
Cc1nc2c(c(C)c1CCC(=O)NCCOc1cccc(C(F)(F)F)c1)c(=O)n(C)c(=O)n2C | -0.579 | -0.2
CCC(=O)Nc1ccc2c(c1)N(C(C)=O)c1ccccc1CC2 | -0.733 | 1.2
O=C(O)c1c2c(nc3ccccc13)C(=O)N(C1CCCCC1)C2 | -0.393 | 0.8
Cc1ccc(NC2=NCCC2)cc1 | / | 0.4
Cc1cc(C(=O)NCC(=O)O)c(C)o1 | 0.413 | 3.9
CCOC(=O)N1CCC(NC(=O)C(C)n2nc(C)c3sc4ccccc4c3c2=O)CC1 (stereo not given) | -0.71 | 1.1
Cc1cc(NC(=O)C(C)c2c(C)n[nH]c2C)no1 (stereo not given) | 0.0735 | 0.4

In the list so far, these have a thiophene ring, fused or not.
structure | LANA-nucl inh | BasE inh
CN1C(=O)c2ccccc2C(C(=O)N2CCCCCC2)C1c1cccs1 (stereo not given) | -0.204 | 0.6
CCOC(=O)N1CCC(NC(=O)C(C)n2nc(C)c3sc4ccccc4c3c2=O)CC1 (stereo not given) | -0.71 | 1.1

Continued.
structure | LANA-nucl inh | BasE inh
CC(O)c1cccc(Nc2ncnc3c2cnn3C)c1 (stereo not given) | -1.24 | -0.2
O=C(c1ccc(-c2ccccc2F)o1)N(CC1CCCO1)C1CCS(=O)(=O)C1 (stereo not given) | / | -0.3
Cn1ccnc1SCC(=O)Nc1nncs1 | -1.01 | 5.0
O=C(O)c1ccc2nc[nH]c2c1 | / | 2.8
Cc1ccc(C)c(NC(=O)c2cccc(S(=O)(=O)N3CCCC3)c2)c1 | / | -0.6
O=C(/C=C/c1ccccc1Cl)Nn1cnc2ccccc2c1=O | / | 0.9
O=C(Nc1ccc(Br)cc1)C12CC3CC(CC(C3)C1)C2 | / | -4.0
Cc1ccc2c(CN3c4ccccc4CC3C)cc(=O)oc2c1 (stereo not given) | / | -6.5
CC(O)c1ccc(F)cc1 (stereo not given) | / | 0.1
O=C(NCC(c1ccco1)N1CCCCC1)c1cccs1 (stereo not given) | / | -2.0
COC(=O)c1cc(COC(=O)c2ccc3[nH]c4c(c3c2)CCCC4)oc1C | / | 0.5
CCC1S/C(=N\S(=O)(=O)c2ccccc2)N(c2ccccc2)C1=O (stereo not given) | / | 0.3
O=C(CONC(=O)C12CC3CC(CC(C3)C1)C2)N1CCc2ccccc21 | / | 2.2
Cc1ccc(OCC(O)CN2C(=O)NC(C)(C)C2=O)cc1 (stereo not given) | / | 0.9
NNC(=O)CSc1nc(-c2ccccc2)nc2c1CCCC2 | / | -2.7
CCCCNC(=O)CC1N=C2c3ccccc3N=C(SCC(=O)Nc3ccccc3OC)N2C1=O (stereo not given) | 0.392 | -0.5
CCC(=O)c1ccccc1OCCCSc1ncccn1 | -1.23 | -2.4
N#C/C(=C\c1ccccc1)C(=O)N1CCCC1 | / | 2.5
CCOC(=O)c1sc(N)c(C#N)c1COC(=O)c1c(C)nn(-c2ccccc2)c1Cl | / | -33.3
CC1(C)C=C(c2ccc(C3=CC(C)(C)NC(C)(C)C3)s2)CC(C)(C)N1 | / | -4.2
CC(C)COc1ccc(/C(=N\O)c2ccccc2)cc1 | / | 1.6
O=C1CSC(c2ccco2)N1Cc1ccccc1 (stereo not given) | / | 0.7
CCSc1nnc(-c2cccc(S(=O)(=O)N(CC)CC)c2)n1N | / | 1.6
Brc1[nH]nc2ccccc12 | / | 11.4
Cc1c(C(=O)NN)nn(-c2ccc(C(C)(C)C)cc2)c(=O)c1C#N | 0.308 | -0.4
Cc1nn(-c2ccccc2)c(Cl)c1CN1CCN(Cc2ccc3c(c2)OCO3)CC1 | / | 1.7
O=C(NCC1CCCCC1)c1ccc(=O)n(Cc2ccccc2)n1 | / | -2.2
Fc1ccc(Oc2ncccn2)c(Cl)c1 | / | 1.7
CSc1nc2ccc(S(=O)(=O)N3CCCCC3)cc2s1 | -0.556 | 2.4
Cc1ccc(-c2csc(=Nc3cccnc3)n2CCCN2CCCC2=O)cc1C | / | -0.5
CCCc1cnc(N2CCN(C(=S)NC)CC2)nc1 | / | 1.6
COc1cccc(NCc2ccc(OC)c(Cn3ccnc3)c2)c1 | -1.14 | 1.2
CN(C)/C=C(\C#N)C(=O)N=C1CCCN1C | -0.0495 | 4.1
CN(C)/C=N/NC(=O)Cc1csc2nc(-c3ccccc3)nn12 | -0.247 | 1.0
O=C(NCc1ccccn1)C1CCN(C(=O)c2cnn(-c3ccccc3)c2-n2cccc2)CC1 | -1.12 | -0.7
Cc1ccc(C(=O)Nc2ccc(CN3CCS(=O)(=O)CC3)cc2)cc1C | / | 0.7
CCCCn1nnc2c(=O)oc3ccccc3c21 | / | 2.2
CC(C)N(CCC#N)C(=O)Nc1ccccc1 | / | -16.0
CCCC(=O)N=c1sc2c(OC)ccc(OC)c2n1C | -1.64 | 0.7
Cc1csc(-c2cn(C(C)C)c(=O)n(Cc3ccccc3)c2=O)n1 | / | 0.5
CCN(C(=O)c1ccc(OC)cc1)c1ccccc1OC | -1.02 | 0.1
Cc1cc(C(=O)CSc2nnc(N)s2)c(C)n1-c1c(C)n(C)n(-c2ccccc2)c1=O | / | -0.3
COc1ccc(S(=O)(=O)N2CCCC(C(=O)NC3CC3)C2)cc1OC (stereo not given) | -0.0085 | -2.9
O=C(Oc1c(-c2ccccc2)c(=O)n2c3c(cccc13)CC2)c1ccco1 | -0.316 | -2.1
Cc1csc(=NC2CCCCC2)n1/N=C/c1ccc(O)c(O)c1O | / | 3.4
Clc1ccc2nc(-c3ccco3)cc(-c3ccccc3)c2c1 | / | -4.4
CCNCC(=O)Nc1cc(C(F)(F)F)ccc1OCCOC | / | -0.9
CC(C)C(NC(=O)c1ccccc1)C(=O)OCc1cc(=O)n2ccsc2n1 (stereo not given) | / | -2.1
COC(=O)c1ccc(-n2c(C)cc(-c3csc(N)n3)c2C)cc1 | / | -1.4
Cc1ccc2occ(/C=N/O)c(=O)c2c1 | 0.706 | /

Sorted by the number under LANA-nucl inh (highest first): some entries from above.
compound	LANA-nucl inh
COc1ccc(S(=O)(=O)N2CCCC(C(=O)NC3CC3)C2)cc1OC (stereo not given)	-0.0085
O=C(Oc1c(-c2ccccc2)c(=O)n2c3c(cccc13)CC2)c1ccco1	-0.316
CCN(C(=O)c1ccc(OC)cc1)c1ccccc1OC	-1.02
CCCC(=O)N=c1sc2c(OC)ccc(OC)c2n1C	-1.64

Following part
structure | LANA-nucl inh | BasE inh
CN1C(=O)/C(=C\c2ccc3c(c2)OCO3)SC1=S | 1.26 | -0.7
O=C(Nc1nccs1)C(F)(F)F | -0.525 | 0.8
O=C(O)c1ccc(-c2nnco2)cc1 | / | 1.9
O=C(Nc1ccccc1)C1(S(=O)(=O)c2ccccc2)CC1 | -1.18 | -0.5
CCOc1cc(C)ccc1OCC(=O)O | -0.064 | 0.1
N#CCN1CCn2c3c(c4cc(C5CCCCC5)ccc42)CCCC31 (stereo not given) | -0.584 | 0.6
COC(=O)c1cc(OC(=O)C23CC4CC(CC(C4)C2)C3)n(C)n1 | -0.819 | 0.5
O=C1O/C(=C/C(=O)N2CCOCC2)c2ccccc21 | -0.724 | 1.4
O=C(c1cc(Nc2ccccc2)n[nH]1)N1CCCCC1 | -0.131 | 0.5
COc1ccc(-c2noc(N3CCCC(C(=O)N(C)c4cccc(C(F)(F)F)c4)C3)n2)cc1 (stereo not given) | 0.76 | 1.1
COCC(=O)NCc1nn(-c2ccccc2)nc1C | / | 0.2
O=c1c2ccccc2c(/C=N/c2ncn[nH]2)c(O)n1Cc1ccccc1 | / | -2.6
Cc1cc(OC(=O)c2cccs2)n(Cc2ccc(Cl)cc2Cl)n1 | / | 0.2
O=C(OCc1cc(=O)oc2cc(O)ccc12)C1CC2CCCC(C1)C2=O (stereo not given) | / | -0.9
Cc1ccc(S(=O)(=O)NCCO)cc1-c1nnc2c3ccccc3c(C)nn12 | 1.22 | -1.3
Cn1cnnc1SCC(=O)NC(=O)c1ccc(C(C)(C)C)cc1 | / | -0.1
O=S(=O)(c1ccc(N2CCOCC2)nc1)N1CCOCC1 | / | -0.1
Nc1nc2cc3c(cc2s1)OCO3 | 0.467 | 1.9
CCCc1cc(=O)[nH]c(SCC(=O)N(C)Cc2ccccc2)n1 | / | -2.2
COC(=O)Cc1cc(=O)[nH]c(=S)[nH]1 | / | 2.9
CCOc1nc2cccnc2n(C(C)C(=O)N(CC)c2cccc(C)c2)c1=O (stereo not given) | -0.386 | 1.5
CC(C)(C)N(Cc1ccccc1)C(=O)CSc1nc(N)cc(=O)[nH]1 | / | -1.6
O=C(CCCn1sc2ccccc2c1=O)NCc1cccnc1 | -1.44 | 1.5
COc1ccc(Cc2nnc(NC(=O)c3cccs3)s2)cc1OC | -0.483 | 1.7
CCCNCC(=O)Nc1ccccc1C | / | 0.6
CN(C(=O)CSc1nc2ccccc2o1)C1CCCCC1 | / | 2.0
O=C(Nc1ccccc1Cl)c1ccc2c(c1)C(=O)N(Cc1ccco1)C2=O | -0.517 | 0.8
NS(=O)(=O)c1ccc2nc3c(nc2c1)-c1cccc2cccc-3c12 | / | 3.4
S=C(Nc1ccccn1)c1ccccc1 | 0.12 | -0.5
Cc1ccc(S(=O)(=O)NCCN2CCN(S(=O)(=O)c3ccc(C)c(C)c3C)CC2)c(C)c1C | / | -0.7
COC(=O)CNC(=O)C1CC1 | / | 1.1
Cc1cccc(C)c1-n1nnnc1SCc1cc(Cl)c2c(c1)OCCO2 | / | 0.4
CNC(=O)CCCc1nc(-c2ccc(OC)cc2)no1 | 0.531 | 2.2
C[C@H]1[C@@H](OC(=O)CCC(=O)O)O[C@@H]2OC3(C)CC[C@H]4[C@H](C)CC[C@@H]1[C@@]24OO3 | -0.717&-0.187 | /
CCCNC(=O)NC1CCN(c2nc3ccccc3s2)CC1 | 0.029 | 2.3
CCN(CC)Cc1c(C)c(C)c(C)c(C)c1C | / | 3.5
Cc1ccc(Sc2cnc3ccccc3n2)cc1 | -1.29 | /
Cc1cc(C)c2c(N=CN(C)C)c(C(=O)N3CCN(c4ncccn4)CC3)sc2n1 | 1.08 | -5.9
CC(C)C(NC(=O)COc1ccc(Br)cc1)C(=O)O (stereo not given) | -0.144 | 1.1
COc1ccc(-c2noc(CN(C(=O)Nc3ccc(C)cc3)C(C)C)n2)cc1 | 0.34 | -1.4
O=S(=O)(c1ccc2oc(-c3cccnc3)nc2c1)c1ccc2oc(-c3cccnc3)nc2c1 | -0.55 | 1.5
Cc1cc(C)n(-c2nncn2N)n1 | / | -1.3
CCOc1ccccc1Nc1nnc(SCCC#N)s1 | / | -0.3
CCOC(=O)C1=C(CNc2ccc(C)cc2)NC(=O)NC1c1ccccc1 (stereo not given) | -0.174 | -0.8
CC(C)C(C)(C#N)NC(=O)CSc1nnc(-c2cccs2)n1N (stereo not given) | / | -1.0
Cc1cc2cc(CNC(=O)c3cc4ccccc4o3)ccc2[nH]1 | -1.44 | 1.9
O=C(O)c1cc(=O)c2cccc(O)c2[nH]1 | 0.423 | -2.1
CCOC(=O)c1c(N)sc(C(=O)NC)c1COC(=O)/C=C/c1cccs1 | / | 0.7
NC(=O)c1c(NC(=O)CN(C(=O)c2cccs2)C2CCCC2)sc2c1CCCC2 | 0.285 | -0.3
OCCNc1ccc(C(F)(F)F)cn1 | 0.553 | 0.0

The list continues:
structure | LANA-nucl inh | BasE inh
CC(=O)N=Nc1c(O)[nH]c2ccc(F)cc12 | -0.282 | -0.6
Cc1c(C(=O)Nc2ccccc2Br)oc2ccccc12 | -0.26 | 0.3
NNC(=O)Nc1ccccc1 | / | 1.1
COC(=O)c1ccc2ccn(CC(N)=O)c2c1 | 1.47 | -5.3
COc1cnc(-c2ccccc2)nc1Sc1ccccc1 | -0.254 | /
O=C(c1cnn(-c2ccccc2)c1-n1cccc1)N1CCC(C(=O)N2CCc3ccccc32)CC1 | -0.799 | -0.3
CC(C(=O)Nc1ccc(Cl)cc1)N(C)Cc1cccs1 (stereo not given) | / | 2.5

Bioassay records deposited in PubChem by ICCB-Longwood Screening Facility, Harvard Medical School.

Not all compounds are listed; rates above refer to the full screens.
